High-throughput results as filed in PubChem.
GLA inh pH 4.5 = blocks human alpha-galactosidase A at pH 4.5; P06280; purified enzyme, 4-MU-alpha-Gal fluorescence, pH 4.5; activity change, negative = inhibition, % at 105 µM; 230,000 tested, under 10 active; inconclusive = small, poorly fitted or top-dose-only inhibition, or a rising curve; inactive = flat fitted curve, though single readings scatter; no compound was filed as active;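 note: 0% = full activity with enzyme and -100% = basal without enzyme; dose as in the result columns while the protocol names 77 µM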
Target sequence (P06280 whole entry, looked up): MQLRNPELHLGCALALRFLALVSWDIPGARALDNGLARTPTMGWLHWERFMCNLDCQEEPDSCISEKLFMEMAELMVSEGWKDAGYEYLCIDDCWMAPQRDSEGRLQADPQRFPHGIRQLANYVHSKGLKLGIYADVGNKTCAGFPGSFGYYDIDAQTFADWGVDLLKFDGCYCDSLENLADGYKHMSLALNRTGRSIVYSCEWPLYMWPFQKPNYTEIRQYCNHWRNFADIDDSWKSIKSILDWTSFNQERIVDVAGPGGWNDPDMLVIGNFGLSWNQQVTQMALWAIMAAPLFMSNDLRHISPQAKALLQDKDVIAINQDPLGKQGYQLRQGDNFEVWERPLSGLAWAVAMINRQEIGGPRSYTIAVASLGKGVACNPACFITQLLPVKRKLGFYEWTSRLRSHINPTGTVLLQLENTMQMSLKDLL
miR-21 FLuc = miR-21 reporter, rising signal; HeLa miR-21 FLuc reporter, luciferase, 48 h; Potency, µM (titrated, usually from 38.3 µM), for inactives: at the highest dose reporter change, positive = more light; 340,000 tested, under 10 active; active = well fitted rising curve with a large enough effect; inconclusive = small, poorly fitted or top-dose-only effect; inactive = no such curve, though single readings can be large or run the other way;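 note: % of control where 0% means no effect; miR-21 action dims this reporter so a rising signal means less miR-21 action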
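HeLa cells stably expressing CMV-driven firefly luciferase with a downstream miR-21 binding sequence, endogenously expressing miR-21, were treated with titrations (up to about 40uM final) for 48 hours at 37 degree Celsius. Luciferase luminescence was read after lysis.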
Rango-impB inh = inhibitors of Rango-importin beta complex formation. Q14974. Rango CFP/YFP FRET sensor + importin beta, 45 min. Potency, µM (highest dose often 92.2 µM), for the others: top-dose inhibition of complex formation. 340,000 tested, 0.031% active; active = rising FRET ratio curve, often small or poorly fitted; inconclusive = mostly compound fluorescence or quenching in the first reads; inactive = flat curves in all reads;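 note: potency is the fitted concentration of half-maximal effect; 0% = DMSO wells and 100% = buffer wells lacking importin beta; nearly all actives have a fitted effect of over 15% in size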
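Inhibition scored from the CFP 486 nm/YFP 530 nm FRET ratio 45 min after adding 0.125 microM importin beta to 50 nM Rango biosensor preincubated 5 min with compound (room temperature, PBS with DTT, Tween-20, BSA). No-importin wells as positive control.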
Rango release inh = inhibition of RanGTP-driven Rango-importin beta dissociation | 340,000 tested, 0.071% active | O95149+P62826 | Biochemical FRET Rango-importin beta, RanGTP-induced dissociation | Potency, µM (highest dose often 46.1 µM), inactives show at the top dose activity change, negative = inhibition; active means falling FRET ratio curve, often poorly fitted, with flat reads before Ran was added; inconclusive means other falling curves, or compound fluorescence or quenching; inactive means flat or rising ratio curve;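 note: potency is the fitted concentration of half-maximal effect; % of control where 0% means no effect; nearly all actives have a fitted effect of over 45% in size; -100% = wells without RanGTP and RCC1; the record marks most hits as doubtful in a second field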
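Recombinant Rango FRET biosensor (EYFP–snurportin 1 IBB–cerulean CFP10) at 0.1 uM premixed with 0.25 uM importin beta in PBS, 1 mM DTT, 0.02% Tween-20, 0.1% BSA. Compound added 5 min; RanGTP-RCC1 (0.6 uM Ran, 2 mM GTP, 0.2 uM RCC1) then triggers release, read at 45 min.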
* hit, by the source's call; ? = inconclusive; / = no result given; & = joins results of further samples; [ ] = remark or other dose.

Results follow in this order: GLA inh pH 4.5	miR-21 FLuc	Rango-impB inh	Rango release inh
COc1ccccc1NC(=O)C(NC(=O)OC(C)(C)C)C(C)OCc1ccccc1 (centres undefined)
 : 0	-4%	?	-4%
CC(C)(C)c1ccc(C(=O)NC(CC(=O)O)c2ccc(OC3CCCC3)cc2)cc1 (centres undefined)
 : /	-1%	3.5%	-7%
COc1ccc(Cl)c(NCCC(=O)O)c1
 : -1	-1%	0.0%	2%
C[C@@H]1C=C(C(=O)N2CCN(Cc3ccc4c(c3)OCO4)CC2)O[C@H](OCCCCO)C1
 : 4	0%	-1.5%	8%
Cc1ccc(/C=C/C(=O)Nc2nccs2)o1
 : -2	-58%	?	-18%
O=C(NCCCCc1ccccc1)c1ccccc1
 : -12	-23%	2.3%	-2%
CC(Oc1cc(F)ccc1[N+](=O)[O-])C(=O)Nc1ccc(S(=O)(=O)N2CCCC2)cc1 (centres undefined)
 : 3	1%	0.7%	10%
Cc1ccccc1C(=O)Nc1ccccc1
 : 2	-36%	1.5%	-1%
CC1CCC(C(C)C)C(OC(=O)C[n+]2cc(-c3ccc(Cl)cc3)n3c2CCCCC3)C1 (centres undefined)
 : 8	27%	13%	-6%
CCOc1ccccc1C(=O)Nn1c(C2CCC2)nc2ccccc2c1=O
 : -5	0%	-0.5%	-3%
O=C(COC(=O)c1ccccc1O)NC12CC3CC(CC(C3)C1)C2
 : /	/	-0.7%	18%
COC(=O)c1cc(NC(=O)c2cc(C(C)(C)C)nn2Cc2cccc(C)c2)ccc1N1CCOCC1
 : -29	26%	1.6%	41%
FC(F)(F)c1cnc(N2CCC(=NOCc3ccc(Cl)cc3)CC2)c(Cl)c1
 : -13	0%	2.5%	-1%
COCCNC(=O)c1onc(CCl)c1C(=O)OC
 : -6	7%	0.8%	15%
Cc1ccc(S(=O)(=O)N2CCCCC2)cc1C(=O)OC(C)C(=O)NCC1CCCCC1 (centres undefined)
 : /	/	1.4%	-13%
COc1ccc(N2C(=O)C(Cl)=C(Nc3ccc(OC)cc3OC)C2=O)cc1
 : -10[21.1 µM]	-2%	1.4%	-11%
Cc1cccc(NC(=O)COc2ccc(Br)cc2)n1
 : 9	-39%	1.1%	10%
COc1cccc(NC(=O)N2CCCC2C(=O)NCc2ccccc2F)c1 (centres undefined)
 : 4	1%	-0.3%	2%
CCCn1c(C2CCCN2c2nc(-c3ccc(OC)cc3)cs2)nc2ccccc21 (centres undefined)
 : /	-3%	0.1%	-3%
O=C(N[C@@H](c1ccccc1)[C@@H]1C[C@H]1C(=O)NCc1ccccn1)OCc1ccccc1
 : -8&-9	-2%	4.2%	-16%
COc1ccc(CCNC(=O)Cn2ccc3c(OC)cccc3c2=O)cc1OC
 : 2	2%	-2.4%	-12%
CC12CCC(C1)C(C)(C)C2OC(=O)c1ccccc1C(=O)O (centres undefined)
 : 3	1%	-2.8%	-11%
CN(c1ccccc1)c1nc(N)c([N+](=O)[O-])c(Nc2ccccc2)n1
 : /	-18%	4.0%	17%
O=C(O)CSc1nnc(Cn2nnc3ccccc32)n1CCc1ccccc1
 : 8	3%	2.4%	6%
CC1(C)C(=O)OC(c2c(F)c(F)c(F)c(F)c2F)C2(CCCCC2)C1=O (centres undefined)
 : -3	-3%	0.1%	0%
Cc1ccc(OP(=O)(Nc2c(C)n(C)n(-c3ccccc3)c2=O)Oc2ccc(C)cc2)cc1
 : -10	-2%	-0.2%	1%
CN(Cc1cccnc1)C(=O)c1cc(S(=O)(=O)Nc2ccccc2F)ccc1Cl
 : /	/	?	-11%
C/C(Cc1ccccc1)=N\NC(=O)CNC(=O)c1ccc2c(c1)OCCO2
 : 4	-5%	4.9%	0%
COCc1c(C(=O)NCc2ccccc2CN2CCCC2)oc2ccccc12
 : /	/	-1.2%	0%
Cc1ccccc1C(=O)NC1CCN(CC(=O)NCc2cccs2)CC1
 : 7	2%	2.9%	-11%
COCCN1C(=O)N[C@@H](c2ccco2)C(C(C)=O)=C1C
 : -20&-2	-2%	-4.4%	-5%
COc1cc(S(=O)(=O)N2CCCCC2)ccc1NC(C)=O
 : 7	-3%	-2.7%	2%
O=C(c1cnn(-c2ccccc2)c1)c1ccc2ccccc2c1O
 : 4	-51%	8.2%	-3%
COCC(C)n1c(C)cc(C(=O)CN2c3cccc4cccc(c34)S2(=O)=O)c1C (centres undefined)
 : /	/	?	0%
CCCCNC(=S)NNC(=O)c1csc2ccccc12
 : -5	-20%	-3.9%	-5%
CC(C)OC(=O)c1ccc(NC(=O)Cn2c(-c3nonc3N)nc3ccccc32)cc1
 : 2	-9%	0.1%	26%
Cc1ccc(S(=O)(=O)NCC(c2cccnc2)N2CCc3ccccc32)cc1 (centres undefined)
 : /	0%	-3.2%	-6%
CC(C)(C)OC(=O)CN1c2cccc3cccc(c23)S1(=O)=O
 : /	-2%	-0.2%	-3%
COc1ccc(-n2c(SCC(=O)c3ccc[nH]3)nnc2-c2ccccc2)cc1
 : 2	-1%	0.3%	0%
CC(=O)Nc1ccc(S(=O)(=O)N(C)c2ccc(OCCOc3cccc(C)c3)cc2)cc1
 : /	/	-0.8%	1%
CCSc1nnc(NC(=O)C(C)(C(F)(F)F)C(F)(F)F)s1
 : -4	25%	3.6%	1%
Cc1noc(C)c1S(=O)(=O)Nc1ccc(C(=O)NC2CCCCCC2)cc1
 : 5	-11%	15%	13%
O=C(NCc1ccccc1)NC1(C(=O)N2CCOCC2)CCCCC1
 : -1	-1%	3.9%	1%
O=C(Cn1ncc(Cl)c(Cl)c1=O)c1ccc2c(c1)OCCO2
 : /	/	0.9%	9%
Cn1cnc(S(=O)(=O)N2CCN(C(c3ccccc3)c3ccccc3)CC2)c1
 : /	1%	-2.8%	-4%
CNCC(O)C(O)C(O)C(O)CO (centres undefined)
 : 1	3%	2.8%	6%
C=CCn1cnc2c(nnn2-c2ccc(Cl)cc2)c1=O
 : -1	-30%	?	-3%
Cc1ccc(/C=N/NC(=S)NC(C)C)o1
 : -17	-16%	-1.2%	-8%
O=[N+]([O-])c1cccc(/C=N/n2cnnc2)c1
 : 1	-2%	-1.4%	9%
Cc1cc2ccccc2cc1CN1CCCCC1
 : /	0%	0.8%	1%
CC1CN2C(c3ccc([N+](=O)[O-])cc3)=CSC2=N1 (centres undefined)
 : /	-5%	-1.2%	2%
CCCCNC(=O)OCC(CC)NC(=O)OC(C)C (centres undefined)
 : 0	-1%	3.4%	13%
COc1ccc([N+](=O)[O-])c2c(=O)ccoc12
 : 1	-4%	-0.2%	-10%
COc1ccc(-c2ccc3c(c2)C2CC3CCN2C(=O)OCc2ccccc2)cc1 (centres undefined)
 : /	/	0.5%	-8%
COC(=O)c1nc2nc(C)cc(=O)n2[nH]1
 : 7	1%	1.0%	0%
Nc1cc(=O)[nH]c(SCC(=O)N2N=C(c3ccc(Cl)cc3)CC2c2ccco2)n1 (centres undefined)
 : 2	-37%	?	-12%
COc1cc(C(=O)Nc2cccc(-c3nc4ccccc4o3)c2C)cc(OC)c1OC
 : 0	-1%	6.7%	2%
CC(C)CNc1cc(=O)n(C)c(=O)n1C
 : -1	-5%	-2.9%	0%
Cc1nc2cc(-c3cccc(F)c3)nn2c(C)c1CCC(=O)NC(C)c1ccc2c(c1)OCCO2 (centres undefined)
 : -18	10%	-3.5%	-11%
S=C(NCc1ccncc1)NC1CCCC1
 : 2	0%	2.2%	-6%

New compounds follow.
mol | GLA inh pH 4.5 | miR-21 FLuc | Rango-impB inh | Rango release inh
COc1ccc(Cn2c(CCC(=O)N3CCN(c4ccccn4)CC3)nc3ncccc3c2=O)cc1 | 2 | -6% | 0.3% | -12%
O=C(COc1ccccc1Cl)NCC(c1cccs1)N1CCOCC1 (centres undefined) | / | / | -2.7% | 17%
COc1ccc(S(=O)(=O)Nc2ccccc2C(=O)NCc2ccco2)cc1Br | 13 | -11% | 6.3% | 4%
O=c1[nH]c2ccccc2c(=O)n1Cc1ccco1 | 2 | 0% | 0.6% | 30%
c1ccc(-c2noc(CC3CCCCC3)n2)nc1 | -4 | -57% | 0.5% | -8%
CCOC(=O)c1cnc2ccc(OC)cc2c1Nc1ccc(N2CCN(C)CC2)cc1 | / | 13% | 0.3% | -8%
COc1cc(NC(=O)C2CCCN2C(=O)C2CCC(C)CC2)cc(OC)c1OC (centres undefined) | 16 | 3% | -1.4% | -5%
CC(C)(C)c1ccc(-c2nnc(SCC(=O)NC3CC3)o2)cc1 | / | / | 0.4% | 2%
O=C(NC1CCCCC1)c1ccccc1NC(=O)C1CC(=O)N(c2ccc(Cl)cc2)C1 (centres undefined) | -5 | -3% | -1.9% | 1%
O=C(Nc1cc(F)ccc1F)c1ccc(-n2cncn2)c([N+](=O)[O-])c1 | / | / | -1.5% | -2%
Cc1ccc(CNC(=O)COC(=O)c2cc(=O)[nH]c3ccccc23)cc1 | / | / | -5.1% | 1%
CCC(OC(=O)CNS(=O)(=O)c1ccccc1)C(=O)c1ccccc1 (centres undefined) | / | -2% | 0.4% | 34%

4 consecutive entries out of the list so far, for reference:
mol | GLA inh pH 4.5 | miR-21 FLuc | Rango-impB inh | Rango release inh
O=C(NC1CCCCC1)c1ccccc1NC(=O)C1CC(=O)N(c2ccc(Cl)cc2)C1 (centres undefined) | -5 | -3% | -1.9% | 1%
O=C(Nc1cc(F)ccc1F)c1ccc(-n2cncn2)c([N+](=O)[O-])c1 | / | / | -1.5% | -2%
Cc1ccc(CNC(=O)COC(=O)c2cc(=O)[nH]c3ccccc23)cc1 | / | / | -5.1% | 1%
CCC(OC(=O)CNS(=O)(=O)c1ccccc1)C(=O)c1ccccc1 (centres undefined) | / | -2% | 0.4% | 34%

Next part.
mol | GLA inh pH 4.5 | miR-21 FLuc | Rango-impB inh | Rango release inh
COc1ccccc1NC(=O)Nc1ccccc1Br | 0 | -14% | -4.0% | 18%
COc1cc(-c2cc(C(=O)Nc3ccncc3)c3ccccc3n2)cc(OC)c1OC | / | / | 0.5% | 9%
O=C(Cc1ccccc1)NNC(=O)c1cccs1 | 6 | -13% | -3.9% | 3%
Cc1cc(Cl)ccc1OCC(=O)Nc1ccccc1N1CCOCC1 | 1 | 13% | 0.1% | 5%
Cc1cc(NC(=O)CSc2ccc(Cl)cc2)no1 | -4 | -9% | 4.0% | 5%
CC1CCN(c2ccc(-c3ccc(NC(=O)c4ccco4)cc3)nn2)CC1 | / | / | -0.6% | -1%
O=C(O)CCC(=O)Nc1ccc(S(=O)(=O)c2ccc(NC(=O)CCC(=O)O)cc2)cc1 | / | 0% | -6.3% | -17%
CCN(CC)C(=O)C1CCCN(C(=O)Nc2ccc3nsnc3c2)C1 (centres undefined) | 17 | -9% | -1.0% | 0%
CSCc1c(C(=O)N2CCCc3ccccc32)oc2ccccc12 | / | / | -0.3% | 5%
CCCCSCCCNC(=O)C1CCC(CNS(=O)(=O)c2ccccc2)CC1 (centres undefined) | / | 19%&20% | -5.7% | 12%
Nc1n[nH]c(N)c1N=Nc1cccc(C(F)(F)F)c1 | / | 0% | 7.0% | -7%

Reformatted: results already given
GLA inh pH 4.5,miR-21 FLuc,Rango-impB inh,Rango release inh,compound
6,-13%,-3.9%,3%,O=C(Cc1ccccc1)NNC(=O)c1cccs1
-4,-9%,4.0%,5%,Cc1cc(NC(=O)CSc2ccc(Cl)cc2)no1

An excerpt; the hit share may differ from the screen's.
